Source: PubChem (several laboratories)
Beta cell apopt: beta cell apoptosis inhibition; INS-1E cytokine-induced death, ATP luminescence, 48 h; percent of positive-control rescue, neutral wells zero; protection from apoptosis, % (test concentration not listed); actives 0.8% (n = 300,000); AID 435005;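 active means all replicates at 75% or more, or half of them and the mean; inconclusive means half reach 75% but not the mean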;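 further: 0% = cytokine-treated negative control wells and 100% = positive control rescue; higher means more ATP so stronger rescue from cytokine killing; wells of about 40 µL received 100 nL stock; the first replicate is given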
Vif TR-FRET: HIV-1 Vif–A3G interaction blockers – biochemical, TR-FRET, GST-Vif 1-94, biotin-A3G peptide, dose response retest, primary screen (AID 1117319) | actives 0.57% (n = 260,000) | inhibition, %; hits with a dose series show IC50 in µM | TR-FRET GST-Vif / biotin-A3G peptide binding; higher % means a stronger effect; test concentration not given here; strong numbers were not always called active;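 active means above the screen mean plus three standard deviations and confirmed in dose response; inconclusive means results disagree or hit not tested in dose response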;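 further: Vif residues 1-94 fused to GST binding biotinylated APOBEC3G peptide 110-148; 0% = full assay without inhibitor and 100% = GST in place of GST-Vif; retest series ran down from 100 µM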
AF4-AF9 inh: blocks AF4 peptide binding to human AF9; actives 0.47% (n = 350,000); AlphaScreen, biotin-AF4 peptide binding to FLAG-AF9; P42568; inhibition, % at 10 µM;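 active means every replicate reaching a set inhibition limit, whatever the replicate mean, cut at about 25% in these data; inconclusive means mean inhibition reaches that limit but some replicates miss it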;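 further: 0% = plate neutral control median and 100% = total signal loss; the record names both 10 and 1 µM as test concentration; the first replicate is given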
Target sequence (P42568 whole entry, looked up): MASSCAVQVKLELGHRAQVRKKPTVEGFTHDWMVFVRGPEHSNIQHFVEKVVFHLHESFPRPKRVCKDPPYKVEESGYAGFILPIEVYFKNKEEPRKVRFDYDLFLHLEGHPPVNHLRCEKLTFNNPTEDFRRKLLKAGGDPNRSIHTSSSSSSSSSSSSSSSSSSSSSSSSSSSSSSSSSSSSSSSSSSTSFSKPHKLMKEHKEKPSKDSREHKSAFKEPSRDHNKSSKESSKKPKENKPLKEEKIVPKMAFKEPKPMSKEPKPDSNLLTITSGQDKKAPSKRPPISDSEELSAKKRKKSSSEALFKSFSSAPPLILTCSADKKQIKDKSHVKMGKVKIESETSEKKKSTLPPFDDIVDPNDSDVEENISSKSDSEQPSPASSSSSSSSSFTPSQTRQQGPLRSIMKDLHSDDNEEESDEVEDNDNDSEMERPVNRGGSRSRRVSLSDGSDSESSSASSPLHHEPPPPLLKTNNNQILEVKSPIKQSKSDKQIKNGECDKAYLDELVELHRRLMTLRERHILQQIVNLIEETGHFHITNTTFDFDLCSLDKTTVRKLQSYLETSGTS
Ecoli rRNA inh: selective bacterial rRNA inhibition in E. coli. GFP signal change (wild-type ribosome), % (no concentration beside the values). actives 1.6% (n = 350,000). E. coli WT GFP vs humanized-ribosome RFP mutants, fluorescence, 24 h; stronger effect = lower value; DMSO median 0, no signal -100. AID 720706;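 active means significant combined selectivity score with lowered wild-type GFP, culture density cut under 30%, mutant RFP and density less affected; inactive means any of these conditions unmet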; further: one replicate is shown; some compounds called inactive have numbers as strong as hits
Calb FLC: C. albicans growth modulation with fluconazole | C. albicans CaCi-2 (fluconazole-resistant clinical isolate) + fluconazole, Alamar Blue growth, 48 h | growth inhibition, % (test concentration not listed) | actives 0.57% (n = 300,000);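 active means most replicates above 75%; inconclusive means exactly half above 75%; inactive means most below 75%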;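 further: all wells also contain fluconazole at 8 µg/ml as a sub-toxic cotreatment; 0% = median of DMSO wells and 100% = median of geldanamycin control wells; wells of about 8 µL received 7.5 nL stock; the first replicate is given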
RanGTP-Impb inh: disruptors of Ran-importin-beta complex formation – biochemical, FRET, CFP-Ran, YFP-importin-beta, homogeneous, primary screen; cell-free CFP-Ran/YFP-importin-beta FRET ratio; inhibition, % (test concentration not listed); actives 1.1% (n = 300,000); AID 2216;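 active means most replicates above 15%; inconclusive means exactly half above 15%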;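 further: 0% = DMSO wells and 100% = Ran loaded with GDP instead of GTP; wells of about 40 µL received 100 nL stock; the first replicate is given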
T cruzi inh: blocks replication of Trypanosoma cruzi | T. cruzi beta-gal in NIH3T3, luminescence, 90 h | inhibition, % (concentration not given with the values) | actives 1.4% (n = 300,000);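 active means mean inhibition across valid replicates above about 55%, limit read from the data; inconclusive means mean below that limit but half or more replicates reach it; inactive means mean below it, under half of replicates reach it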;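 further: signal also drops with host cell toxicity which is not excluded here; 0% = plate median of DMSO wells and 100% = zero luminescence signal; higher percent means less beta-gal luminescence so fewer parasites; stock transfer was 50 nL into about 50 µL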
Bfl-1 A1 inh: inhibitors of the anti-apoptotic protein A1, read as caspase activation; MEF A1-2A-BIM cells, Caspase-Glo 3/7 luminescence, 3 h; percent of clofoctol response, vehicle zero; caspase activation, % (concentration not given with the values); actives 0.066% (n = 330,000); AID 2462;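 active means over half of replicate activation scores above 10%, or exactly half above 10 with the replicate mean above 10; inconclusive means replicate mean below 10 yet half the replicates above 10; inactive means over half of replicates below 10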;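 further: wells of about 30 µL received 50 nL stock; many hits fall short of the cut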
Ecoli rRNA inh OD600: recorded beside Ecoli rRNA inh, whose call it bears; OD600 change, %; measured here: OD600 growth;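 optical density of the mix in the first replicate; 0 = DMSO median and -100 = no signal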
Ecoli rRNA inh RFP: recorded beside Ecoli rRNA inh, whose call it bears; RFP signal change, %; measured here: RFP humanized mutant strains;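 first replicate; 0 = DMSO median and -100 = no signal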
An asterisk follows results filed as active; ? = inconclusive; . = not tested or not shown; & = joins results of further samples. The list is partial; count on the stated rates, not on these rows.

Molecule	RanGTP-Impb inh	Calb FLC	Ecoli rRNA inh	Beta cell apopt	T cruzi inh	Bfl-1 A1 inh	Ecoli rRNA inh RFP	AF4-AF9 inh	Ecoli rRNA inh OD600	Vif TR-FRET
Cc1ccc(C(=O)N/C(=C\c2ccc(-c3ccc(Br)cc3)o2)C(=O)NCCCN(C)C)cc1	1.7	11	-60	100*	77*	-0.3	-23	25*	-81	-2%
CC1=C(C(=O)OCc2ccccc2)C(c2ccccc2Cl)NC(=O)N1CCCCCC(=O)O (centres undefined)	-3.4	-8	-38	-5	13	0.3	-19	-7.6	-42	.
O=C(CC(NC(=O)c1ccccc1)c1ccccc1)Nc1ccc(F)c(F)c1 (centres undefined)	-3.4	-11	11	12	18	0.7	6.2	-2.9	25	0%
N#Cc1ccc(NC(=O)Cn2cnc([N+](=O)[O-])c2)cc1	1.9	4	72	-2	-10	0.5	9.1	0.5	6	.
Cc1ccc(/C=C/C(=O)OCC(=O)N(CC(C)C)c2c(N)n(Cc3ccccc3)c(=O)[nH]c2=O)o1	6.6	.	14	-4	-10	0.1	2.2	-0.2	14	.
Cc1nc(CN2CCCC2=NC#N)n(-c2ccccc2)n1	0.9	-2	13	.	-2	0.6	-4.7	-1.4	10	-1%
CC(NC(=O)c1ccccc1F)c1nnc(SCC(=O)NC2=NCCS2)n1C (centres undefined)	1.1	8	4	-2	-8	-0.7	-0.3	-0.1	10	.
CCOC(=O)c1cc2sc(C)cc2n1CC(=O)N1CCN(C(=O)c2ccco2)CC1	0.7	-13	.	-3	10	0.3	.	.	.	81%
COc1ccc(Cl)cc1N(C(=O)Nc1cccc(Cl)c1)C1=NCC(C)S1 (centres undefined)	-3.4	-1	.	-10	-10	0.3	.	.	.	-6%
Cc1ccc(S(=O)(=O)N(C)c2ccc(OCC(=O)Nc3nc4ccccc4s3)cc2)cc1	-2.0	-7	1	24	11	-0.5	17	0.4	4	5%
Cc1ccsc1C(=O)N1CCN(S(=O)(=O)c2cccc(F)c2)CC1	-1.6	-2	1	.	-3	1.5	-0.6	2.1	-4	-8%
COC(=O)C1=C(C)N(Cc2ccccc2)C(=NCCCOC(C)C)N[C@H]1c1ccccc1	.	.	1	11	.	0.9	17	-2.7	-28	.
O=C(NNC(=O)C1CCN(Cc2cccc(F)c2)CC1)c1cccs1	0.8	-2	5	-6	-10	-0.2	-0.2	-13	14	1%
NC(=O)c1ccccc1OCC(=O)O	4.2	-7	.	0	-13	2.6	.	.	.	-6%
CC(C)c1ccccc1NC(=O)COC(=O)COc1ccccc1[N+](=O)[O-]	5.5	1	18	-3	-10	-0.1	-0.7	0.4	12	8%
COc1ccc(S(=O)(=O)NCc2ccco2)cc1N(C)S(=O)(=O)c1ccccc1	-6.4	-5	-20	-3	20	-0.2	-5.1	2.3	-11	1%
Cc1cccc(/C(N)=N/OC(=O)Cc2cccs2)c1	-4.0	-13	.	-2	-3	-1.5	.	.	.	4%
CCCCNC(=O)Nc1ccccc1C(=O)NCc1ccco1	-0.5	-7	.	-3	-15	-0.3	.	.	.	23%
Cc1cc(NC(=O)CCSc2ccc(Cl)cc2)no1	1.4	0	-5	-6	16	0.1	19	-1.2	5	.
Cc1ccc(-c2csc3nc[nH]c(=S)c23)cc1	4.0	-13	.	9	37	-1.1	.	.	.	-1%

Three entries from above, ordered by heavy-atom count, ascending.
Molecule	RanGTP-Impb inh	Calb FLC	Ecoli rRNA inh	Beta cell apopt	T cruzi inh	Bfl-1 A1 inh	Ecoli rRNA inh RFP	AF4-AF9 inh	Ecoli rRNA inh OD600	Vif TR-FRET
Cc1cccc(/C(N)=N/OC(=O)Cc2cccs2)c1	-4.0	-13	.	-2	-3	-1.5	.	.	.	4%
CCCCNC(=O)Nc1ccccc1C(=O)NCc1ccco1	-0.5	-7	.	-3	-15	-0.3	.	.	.	23%
CC(NC(=O)c1ccccc1F)c1nnc(SCC(=O)NC2=NCCS2)n1C (centres undefined)	1.1	8	4	-2	-8	-0.7	-0.3	-0.1	10	.

Single entries from the list.
O=C(CC(NC(=O)c1ccccc1)c1ccccc1)Nc1ccc(F)c(F)c1 (centres undefined) @ AF4-AF9 inh: -2.9
Cc1ccc(S(=O)(=O)N(C)c2ccc(OCC(=O)Nc3nc4ccccc4s3)cc2)cc1 @ Bfl-1 A1 inh: -0.5
CC(C)c1ccccc1NC(=O)COC(=O)COc1ccccc1[N+](=O)[O-] @ Bfl-1 A1 inh: -0.1
NC(=O)c1ccccc1OCC(=O)O @ Vif TR-FRET: -6%

Two compounds picked at random from those above:
Molecule	RanGTP-Impb inh	Calb FLC	Ecoli rRNA inh	Beta cell apopt	T cruzi inh	Bfl-1 A1 inh	Ecoli rRNA inh RFP	AF4-AF9 inh	Ecoli rRNA inh OD600	Vif TR-FRET
CC1=C(C(=O)OCc2ccccc2)C(c2ccccc2Cl)NC(=O)N1CCCCCC(=O)O (centres undefined)	-3.4	-8	-38	-5	13	0.3	-19	-7.6	-42	.
CCOC(=O)c1cc2sc(C)cc2n1CC(=O)N1CCN(C(=O)c2ccco2)CC1	0.7	-13	.	-3	10	0.3	.	.	.	81%

Carrying on.
Molecule	RanGTP-Impb inh	Calb FLC	Ecoli rRNA inh	Beta cell apopt	T cruzi inh	Bfl-1 A1 inh	Ecoli rRNA inh RFP	AF4-AF9 inh	Ecoli rRNA inh OD600	Vif TR-FRET
COc1ccc(CNC(=O)C(C)N=C2NS(=O)(=O)c3ccccc32)cc1OC (centres undefined)	?	-9	.	-10	9	-0.3	.	.	.	-1%
CC(=O)N1c2ccc(S(=O)(=O)N3CCC(C(=O)N4CCN(c5cccc(C(F)(F)F)c5)CC4)CC3)cc2CC1C (centres undefined)	2.3	-12	-10	92*	31	-0.7	1.1	-0.7	-17	.
O=C1NC2(CCCCC2)C(=O)N1CC(=O)N1CCc2ccccc21	.	.	4	-5	.	1.0	-1.3	-0.5	11	1%
CN(C)S(=O)(=O)c1cccc(C(=O)NCC2CCCO2)c1 (centres undefined)	-2.0	-4	.	4	-22	0.9	.	.	.	7%
O=C(Nc1cccnc1)c1ccccc1O	-0.5	-14	.	-3	-8	-2.0	.	.	.	33%
COCCOC(=O)C1=C(C)NC2=C(C(=O)CCC2)C1c1cc2c(cc1Br)OCO2 (centres undefined)	0.8	17	.	-6	14	1.0	.	.	.	0%
S=c1[nH]nc(-c2n[nH]c3c2CCC3)n1/N=C/C=C/c1ccco1	3.7	18	18	-4	11	-0.1	3.3	-6.4	6	?
CCOc1ccc(NC(=O)Cn2cc(C(C)=O)c3ccccc32)cc1	1.7	-7	3	3	-7	1.5	0.8	-2.2	3	-5%
Cc1ccccc1NC(=O)CN1CCc2ccccc2C1	-2.8	-1	2	1	-9	-1.2	3.5	-5.5	2	.
O=C(NCc1ccccc1)c1cc(-c2ccncc2)nc2ccccc12	11	3	1	-6	-11	0.3	0.5	3.7	-7	3%
COc1ccc(S(=O)(=O)Nc2cccc3c2O[C@H](CN(C)CC2CCCCC2)[C@@H](C)CN([C@H](C)CO)C3=O)cc1	.	.	1&10	-1	.	?	-0.4&1.1	1.1&-0.6	5&11	.
COc1ccc(NC(=O)CSc2nc(N)c3cc4c(nc3n2)CC(C)(C)OC4)cc1	-0.2	-2	11	-1	13	-1.8	2.2	-15	9	4%
CCOc1cccc(C(=O)N2CCCCC2c2cccnc2)c1 (centres undefined)	0.9	41	.	-7	17	-0.1	.	.	.	0%
CCOC(OCC)c1cn(Cc2ccc3c(c2)C(=O)c2ccccc2C3=O)nn1	2.0	12	2	5	-8	-1.1	-5.3	2.1	0	.
CC(=O)Nc1ccccc1NC(=O)c1cc(C)cc(C)c1	-3.1	-15	12	0	-3	0.2	4.7	0.1	5	4%
O=C(/C=C/c1cccs1)N1CCC2(CC1)Oc1ccc(Cl)cc1C(=O)C21CC(c2cccnc2)=NO1 (centres undefined)	1.7	38	13	14	15	-0.2	2.7	4.1	10	-10%
Cc1cc(C)c(NC(=O)c2ccoc2C)c(C)c1	3.6	-4	.	1	1	2.5	.	.	.	?
COc1ccccc1-c1nnc(SCC(=O)NC2CCCCC2)n1N	.	.	15	-3	.	-0.3	4.6	0.8	3	-1%
CN(C)CCC(=O)NCC1OCCc2ccccc21 (centres undefined)	3.6	32	.	-2	-16	0.2	.	.	.	2%
Cc1ccc(-n2c(N)cc(=O)nc2SCC(=O)N2CCN(c3ccccc3)CC2)cc1	4.1	4	7	-2	-1	0.7	0.9	4.9	5	-2%
CC(Sc1nnc(-c2cccnc2)n1-c1ccccc1)C(=O)NCc1ccc2c(c1)OCO2 (centres undefined)	0.4	?	7	9	7	-1.1	5.5	0.1	2	1%
CCOC(=O)N1CCN(C(=O)C(=O)Nc2sc3c(c2C(N)=O)CC(C)(C)OC3)CC1	?	-3	-1	-1	-11	0.5	0.2	-1.8	-2	.
COc1ccc(C(C)C)cc1S(=O)(=O)N1CCN(C)CC1	-5.1	-11	.	-1	-9	0.9	.	.	.	11%
N#Cc1c(NC(=O)CN2CCOCC2)oc(-c2ccccc2)c1-c1ccccc1	-1.3	?	.	-1	20	0.3	.	.	.	-2%
CCOc1ccc(NC(=O)COc2ccc(OC)cc2)cc1	-12	43	-3	6	3	1.0	0.7	2.6	0	14%
O=C(CCCSc1nc2ccccc2[nH]1)Nc1nnc(-c2ccccc2)o1	-3.2	22	.	-4	9	1.0	.	.	.	7%
COC(=O)c1cc(NC(=O)c2cccc([N+](=O)[O-])c2C)ccc1Cl	-2.3	6	-25*	2	15	1.5	-6.6*	0.0	-16*	-5%
COc1ccc(-c2cc(C(=O)N3CCc4ccccc4C3)no2)cc1OC	1.0	-4	.	0	13	-0.3	.	.	.	-1%
CCc1ccc(C2N(c3ccc(OC)cc3)C(=O)C3CCCN32)cc1 (centres undefined)	0.0	2	-1	-6	-3	0.3	-1.8	-0.3	1	-4%
CCC(C)(C(=O)NC1CCCC1)N(Cc1ccco1)C(=O)c1ccc2c(c1)OCO2 (centres undefined)	-3.2	2	.	3	2	1.2	.	.	.	4%
COc1ccccc1CNC(=O)C(C)NS(=O)(=O)c1ccc(Br)cc1 (centres undefined)	?	3	.	-3	0	1.2	.	.	.	.
O=C(Cn1cc2c(n1)CCCC2)N1CCCc2ccccc21	-0.4	-6	-2	-4	0	-0.3	4.9	4.5	4	60%
O=C(CSc1nc2[nH]ncc2c(=O)[nH]1)Nc1ccc(F)cc1	2.5	-15	11	-9	0	0.2	1.0	3.6	7	3%
